HUVEC tox TNFa: cytotoxicity in TNFa-stimulated HUVEC, primary screen, cytotoxicity control for VCAM1 expression modulator project, imaging, Hoechst nuclei count; hit rate 0.17% among 93,000; cell count reduction, % at 2 µM; AID 848, 2007; HUVEC TNFalpha-stimulated, Hoechst cell count;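 active means cell count reduction exceeding the screen mean by over 5 SD, scaled to untreated wells per plate, cut at about 78% in these data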;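 further: cells counted after 24 h of TNF alpha exposure following the 1 h pretreatment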
PLK1 kinase inh: human PLK1 kinase inhibitors, primary screen, biochemical, TR-FRET; recombinant PLK1 kinase, TR-FRET peptide phosphorylation; inhibition, % at 10 µM; hit rate 0.53% among 97,000; AID 619, 2007;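 active means inhibition of 50% or more in the single-concentration screen; inactive means inhibition below 50%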;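 further: 0% = DMSO max control and 100% = H-89 dihydrochloride min control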
DAT uptake mod: changed hDAT dopamine uptake under cocaine IC80, either direction, primary screen, cocaine antagonist project, cell-based, LLC-PK1 hDAT, [14C]-dopamine uptake, MLSMR | LLC-PK1 hDAT cells, [14C]-dopamine uptake with cocaine IC80; actives deviate in either direction | B-score at 10 µM | AID 449768, 2010 | hit rate 1.3% among 110,000;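 active means Z score or B-score, a plate-position-corrected score, falls beyond the plate's 99.7% confidence bounds, in either direction; inactive means both scores lie inside the 99.7% bounds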;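 further: scored against the spread of the other compound wells on the same plate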
Target sequence (Q01959 whole entry, looked up): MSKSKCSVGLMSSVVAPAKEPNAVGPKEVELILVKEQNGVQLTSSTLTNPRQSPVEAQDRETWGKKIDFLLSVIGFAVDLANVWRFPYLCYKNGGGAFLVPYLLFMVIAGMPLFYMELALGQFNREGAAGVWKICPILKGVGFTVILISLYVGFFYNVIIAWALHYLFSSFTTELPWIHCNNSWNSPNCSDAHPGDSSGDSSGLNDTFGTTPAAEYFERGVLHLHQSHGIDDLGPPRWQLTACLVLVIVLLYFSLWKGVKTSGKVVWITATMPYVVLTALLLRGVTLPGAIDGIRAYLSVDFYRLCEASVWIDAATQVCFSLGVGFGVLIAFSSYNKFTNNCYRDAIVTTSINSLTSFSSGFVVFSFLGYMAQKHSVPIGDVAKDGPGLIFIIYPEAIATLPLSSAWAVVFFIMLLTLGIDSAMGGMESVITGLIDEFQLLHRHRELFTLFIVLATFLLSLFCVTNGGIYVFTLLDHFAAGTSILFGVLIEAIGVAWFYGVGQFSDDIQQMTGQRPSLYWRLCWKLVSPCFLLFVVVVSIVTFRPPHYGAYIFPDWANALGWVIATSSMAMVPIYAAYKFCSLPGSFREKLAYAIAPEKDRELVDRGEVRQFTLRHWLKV
Plk1 PBD FP: Plk1 polo box domain binding inhibitors, primary screen, biochemical, fluorescence polarization. Serine/threonine-protein kinase PLK1 (Homo sapiens), P53350. Plk1 PBD phosphopeptide binding. inhibition, %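 (tested at about 20 µM)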. hit rate 0.13% among 97,000; in the data active means inhibition above about 34%, passing the limit was not always enough
IL1B cytotox: cytotoxicity in IL-1B stimulated HUVEC, primary screen, cytotoxicity control for IL-1B NFkB translocation project, imaging, Hoechst nuclear count, IL-1B stimulus | cell count reduction, % at 2 µM | HUVEC cell count loss | AID 845, 2007 | hit rate 0.41% among 94,000;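 active means cell count reduction more than 3 SD above the screen-wide mean, cut at about 70% in these data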;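 further: normalized per plate to untreated control cells as the no-loss baseline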
VCAM1 TNFa inh: inhibitors of TNFa-induced VCAM1 expression, primary screen, imaging, HUVEC, TNFa stimulus, immunofluorescence; inhibition, % at 2 µM; AID 802, 2007; HUVEC TNFa-induced VCAM-1 immunofluorescence, high-content imaging; hit rate 0.48% among 95,000;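 active means inhibition above the batch mean plus 3 SD, with images confirmed as a hit by eye, cut at about 37% in these data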;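 further: 0% = TNF-stimulated DMSO wells and 100% = unstimulated control wells; not every result past the cut was called active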
F-actin modifier: modifiers of F-actin cytoskeleton organization, primary screen, imaging, HUVEC, phalloidin staining, high-content imaging | HUVEC TNFa F-actin phalloidin imaging | inhibition, % at 2 µM | hit rate 0.18% among 91,000 | AID 836, 2007;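 active means inhibition above the batch mean plus 3 SD and confirmed as a hit by visual image inspection, cut at about 30% in these data, passing the limit was not always enough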; further: strong numbers were not always called active
Ecoli WT expand: growth inhibitors of wild-type E. coli, primary screen, strain BW25113, expanded library, OD600; AID 710, 2007; growth inhibition, % at 100 µM; hit rate 0.15% among 98,000; OD600 absorbance;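 active means growth inhibition above about 50% at one test dose, limit read from the data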;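 further: growth measured after 20 h incubation at 37 °C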
The depositor's hits bear a star; · = not tested or not shown. The list is partial. The share of hits here may be higher or lower than overall.

Every second line gives: F-actin modifier	Plk1 PBD FP	DAT uptake mod	Ecoli WT expand	HUVEC tox TNFa	PLK1 kinase inh	VCAM1 TNFa inh	IL1B cytotox
Cc1cc(C(F)(F)F)nc(SCC(=O)NC2=NC(=O)C(C)S2)n1 (stereo not given)
 : 2.0	3.1	0.00479	-4.0	-4.2	0.6	7.0	-18.5
C(=C\c1ccccc1)/CSc1nnc(-c2ccccn2)n1Cc1ccco1
 : 3.6	-17.5	0.969	-12.0	-8.6	-15.1	-0.8	32.7
CC(=O)C1=C(O)C(=O)N(CCC(=O)O)C1c1ccc(Cl)cc1Cl (stereo not given)
 : -5.3	12.7	0.316	-9.0	-12.5	-11.4	-4.2	0.3
CCc1nnc(NC(=O)CSc2ccc(-c3nc4ccccc4[nH]3)cn2)s1
 : -29.0	-12.1	0.0345	-8.0	-1.5	-8.5	6.8	3.7
O=C(CC1CCCCC1)N1CCCC(c2nc(-c3ccc(S(=O)(=O)N4CCCC4)cc3)no2)C1 (stereo not given)
 : -3.4	9.9	0.772	1.0	-16.4	-8.2	17.1	-14.0
COc1ccc(-c2nnc(SCCC(=O)O)n2C)cc1OC
 : ·	-17.2	-0.382	4.0	·	-9.1	·	-3.8
COc1cc(C)ccc1NC(=O)c1ccc(S(=O)(=O)N2CCOCC2)cc1
 : 6.3	27.1	-0.25	-4.0	-34.5	-6.1	-1.1	-9.6
c1ccc(C(c2ccccc2)N2CCN(Cc3nnnn3C3CCCC3)CC2)cc1
 : -3.2	-7.6	1.28	-5.0	-12.3	-4.3	-4.8	16.7
CCSc1nc2sc3c(c2c2nnc(SCC(=O)NCc4ccco4)n12)CCCC3
 : -5.0	-17.6	0.0196	·	-7.9	-13.2	27.3	-35.3
O=C(/C=C/NNC(=O)c1cccc(Br)c1)c1cccc(Br)c1
 : -5.2	-13.7	0.0854	7.0	18.8	-14.1	10.7	32.2
Cc1ccc(C(=O)NCCCN2CCOCC2)cc1N1CCCC1=O
 : -5.5	-7.9	-0.474	2.0	-38.7	-18.7	-47.8	-20.5
COc1cc(S(=O)(=O)N2CCCCC2)ccc1NC(=O)c1ccc(F)cc1
 : -6.8	14.6	1.71	-10.0	-1.1	-4.5	10.7	-26.5
NC(=O)C(c1ccc(Sc2ccccc2)nn1)c1ccc(Cl)cc1Cl (stereo not given)
 : 2.6	-1.3	0.607	6.0	-18.8	4.6	19.2	-7.0
O=C(Nc1ccccc1F)c1ccc(S(=O)(=O)NCC2CCCO2)cc1 (stereo not given)
 : -6.6	-14.3	-0.101	-2.0	-21.3	-3.6	9.6	39.4
Cc1ccc(SCCNC(=O)c2ccc(C)c(S(=O)(=O)Nc3ccccc3C)c2)cc1
 : 19.5	-11.8	-0.553	-16.0	-14.2	-13.1	3.9	-4.0
Cc1ccc(C(=O)O)cc1S(=O)(=O)NCC1CCCO1 (stereo not given)
 : -16.4	20.7	0.323	-2.0	2.5	-9.3	6.4	-13.6
COc1ccc(S(=O)(=O)N(CCCN2CCOCC2)Cc2cccc3ccccc23)cc1
 : -28.2	19.4	0.986	-11.0	7.3	1.3	3.4	-13.5
O=C1c2ccccc2-c2ncnc3cccc1c23
 : 11.4	18.1	·	·	2.6	7.3	5.6	-30.2
CC(Sc1nncs1)C(=O)NCc1ccc2c(c1)OCO2 (stereo not given)
 : -0.4	-11.2	-1.18	2.0	-19.5	-13.6	0.1	-8.5
CN(C1CCCCC1)S(=O)(=O)c1ccc(NC(=O)C2CCCCC2)cc1
 : -3.3	-12.1	-0.609	2.0	-19.1	-23.8	-10.3	-53.2

6 entries from above, arranged by number of heavy atoms, largest number first.
Every second line gives: F-actin modifier	Plk1 PBD FP	DAT uptake mod	Ecoli WT expand	HUVEC tox TNFa	PLK1 kinase inh	VCAM1 TNFa inh	IL1B cytotox
O=C(CC1CCCCC1)N1CCCC(c2nc(-c3ccc(S(=O)(=O)N4CCCC4)cc3)no2)C1 (stereo not given)
 : -3.4	9.9	0.772	1.0	-16.4	-8.2	17.1	-14.0
c1ccc(C(c2ccccc2)N2CCN(Cc3nnnn3C3CCCC3)CC2)cc1
 : -3.2	-7.6	1.28	-5.0	-12.3	-4.3	-4.8	16.7
O=C(Nc1ccccc1F)c1ccc(S(=O)(=O)NCC2CCCO2)cc1 (stereo not given)
 : -6.6	-14.3	-0.101	-2.0	-21.3	-3.6	9.6	39.4
Cc1ccc(C(=O)NCCCN2CCOCC2)cc1N1CCCC1=O
 : -5.5	-7.9	-0.474	2.0	-38.7	-18.7	-47.8	-20.5
CC(=O)C1=C(O)C(=O)N(CCC(=O)O)C1c1ccc(Cl)cc1Cl (stereo not given)
 : -5.3	12.7	0.316	-9.0	-12.5	-11.4	-4.2	0.3
Cc1ccc(C(=O)O)cc1S(=O)(=O)NCC1CCCO1 (stereo not given)
 : -16.4	20.7	0.323	-2.0	2.5	-9.3	6.4	-13.6

Next section.
Every second line gives: F-actin modifier	Plk1 PBD FP	DAT uptake mod	Ecoli WT expand	HUVEC tox TNFa	PLK1 kinase inh	VCAM1 TNFa inh	IL1B cytotox
N#Cc1cnc(SCC(=O)c2ccccc2)nc1N
 : -5.5	-12.2	-0.517	9.0	16.7	-7.2	35.8	-9.4
O=C(Nc1ccccc1)c1ccc(N2CCN(c3ccccn3)CC2)c(S(=O)(=O)N2CCOCC2)c1
 : 7.8	7.9	-0.117	-5.0	10.6	-11.9	27.2	21.4
CC1CCCCC1NC(=O)COn1nnc2ccc(Cl)cc21 (stereo not given)
 : 14.8	3.7	0.736	2.0	-4.7	-2.9	6.6	-102.9
Cc1ccc2nc(-c3ccc(SCC(=O)Nc4cc(C)on4)nc3)[nH]c2c1
 : 47.1	-25.6	0.329	-10.0	-12.3	-4.3	5.5	24.3
Cn1c(C2CC(=O)N(Cc3ccccc3)C2)nc2ccccc21 (stereo not given)
 : -1.8	1.0	-1.2	9.0	-28.1	1.4	0.8	5.5
COc1ccc(CCNC(=O)NC23CC4CC(CC(C4)C2)C3)cc1
 : -25.4	20.6	-1.59	-7.0	1.3	-3.6	29.7	-19.8
CC(=O)c1c(C)[nH]c(C(=O)COC(=O)CN(C)S(=O)(=O)c2ccc(Cl)cc2)c1C
 : 3.2	-15.1	1.73	1.0	-3.9	-18.0	35.7	-15.2
COc1ccc(C2CC(=O)NC3=C2C(=O)CCC3)cc1Cl (stereo not given)
 : -15.0	-0.6	0.479	-3.0	-32.7	-1.6	-22.3	-5.7
CCC(=O)Nc1ccc(S(=O)(=O)N2CCCCC2)cc1OC
 : ·	12.7	1.07	2.0	-40.8	1.4	14.8	-3.9
Cc1ccc(NC(=O)C2CCN(S(=O)(=O)c3ccc(F)cc3)CC2)cc1
 : -1.0	-19.6	-0.637	-5.0	-20.0	-28.4	0.0	-48.9
O=C(O)Cc1csc(NC(=O)c2ccco2)n1
 : 1.6	-13.2	-0.986	-13.0	-19.0	-4.4	-11.1	-16.9
Cc1ccc(CNC(=O)C2CCN(S(=O)(=O)c3cccs3)CC2)o1
 : -14.7	9.9	-1.53	-2.0	-2.8	-0.7	-0.5	3.2
COC(=O)[C@@H](NC(=O)NC1CCCc2ccccc21)C(C)C (stereo not given in full)
 : 12.5	13.1	0.0714	-5.0	0.0	-0.8	-12.6	3.8
COCCn1nnnc1C(c1cc2cc(C)ccc2[nH]c1=O)N1CCc2ccccc21 (stereo not given)
 : -6.2	3.1	0.11	-4.0	-3.3	-7.0	16.8	-0.8
Cc1nc(SCCCSc2n[nH]c(C)n2)n[nH]1
 : 18.4	12.9	-0.331	·	-1.2	-10.1	13.2	-71.8
Cc1sc2c(c1C)c(=O)nc1n2Cc2ccccc2-1
 : ·	17.6	·	4.0	-4.3	-10.8	15.8	22.4
O=c1cc(O)nc(SCc2ccccc2Cl)[nH]1
 : -27.2	-6.6	-0.494	-6.0	-23.3	-22.7	20.8	-29.8
Cc1ccc(-c2cnc(NC(=O)CCC(=O)N(C)Cc3ccccc3)n2C)cc1
 : 10.2	-15.9	0.913	5.0	0.0	-3.4	-10.4	-14.9
CCOc1ccccc1NC(=O)COn1nnc2ccc(Cl)cc21
 : -15.0	-12.1	-1.51	2.0	0.7	-0.3	-6.6	-14.6
c1ccc(-c2cnc(-c3cccnc3)o2)cc1
 : -22.3	2.0	0.345	3.0	-24.8	-11.8	11.2	6.4
CC(C)c1ccc(NC(=O)NC2CCCCC2)cc1
 : -7.8	-11.0	0.277	-6.0	-14.6	-6.7	4.3	13.4
O=C(/C=C/NNC(=O)c1cccc(Br)c1)c1ccccc1
 : -4.9	0.3	1.76	-3.0	-8.1	-14.0	21.3	5.7
CCCCn1nnnc1NCc1ccc(OC)c(OC)c1
 : -9.3	-2.2	0.928	1.0	2.3	-16.8	15.4	-56.1
COC(=O)c1ccc(NC(=S)NC2CCCCC2)cc1
 : 4.2	23.4	0.719	29.0	-0.7	-14.6	10.1	-47.0
Cn1c(=O)c2c(nc(-n3ccnc3)n2Cc2ccc(Cl)cc2Cl)n(C)c1=O
 : 1.3	-12.5	0.00975	-3.0	-2.5	6.5	9.9	-3.8
O=C(Nc1ccsc1C(=O)NC1CC1)c1ccccc1
 : 44.5	5.0	1.94	1.0	-2.7	5.4	-9.9	31.5
Cc1ccc(C2C3=C(NCCN=C3c3ccccc3)C(=O)N2c2ccccc2)cc1 (stereo not given)
 : ·	1.6	0.638	-3.0	-14.2	-1.6	-9.3	-18.8
COc1cccc(-c2nc(-c3ccc(NC(=O)c4ccncc4)cc3)no2)c1
 : -7.4	2.9	-1.13	-8.0	-6.9	-12.7	17.8	0.7
Cc1ccc(SCCNC(=O)c2ccc(C)c(S(=O)(=O)Nc3cccc(C)c3)c2)cc1
 : 4.8	-13.3	0.218	-7.0	-3.6	-11.9	5.3	-44.3
C=CCSc1nnc2c(n1)[nH]c1c(C)cccc12
 : 13.8	3.5	-0.0138	-4.0	-30.6	-16.3	0.6	11.8
Cc1cnc(NC(=O)c2ccco2)s1
 : -14.8	6.4	-0.43	12.0	89.1*	0.4	6.2	8.8
O=C1CCCCC1C(Nc1ccc(Cl)cc1)c1ccccc1 (stereo not given)
 : 9.8	14.7	-0.676	-9.0	-8.9	-7.8	7.1	-24.3
O=C(CCn1nnc2ccccc2c1=O)N[C@@H](Cc1ccccc1)C(=O)O
 : -10.6	17.7	-0.148	1.0	-20.5	-8.0	-20.1	11.7
O=CN1CC(=O)N(c2ccccc2)c2c([nH]c3ccccc23)C1
 : -29.7	1.1	-0.971	1.0	10.7	-4.0	-10.2	22.7
Cc1ccccc1Nc1nnc(SCC(=O)NCc2ccco2)s1
 : 4.8	-29.8	-0.609	12.0	·	-11.3	·	42.9
COC(=O)CSc1nnc(-c2ccco2)n1-c1ccc(C)cc1
 : -3.7	5.0	1.48	-4.0	13.0	-4.2	-5.1	10.5
CC(C)(C)NC(=O)CN(C(=O)CCN1CCCc2ccccc21)C(C)(C)C
 : -0.9	11.7	0.206	5.0	-11.7	-12.2	21.3	16.6
Cc1ccc(NC(=O)C2CCCN(c3ncccn3)C2)cc1F (stereo not given)
 : 9.4	19.3	0.461	-1.0	-0.4	6.0	-9.5	22.0
O=C(NCC1(c2ccccc2)CCCC1)C(=O)N1CCOCC1
 : -18.1	14.2	-0.638	·	-14.6	-9.5	1.0	-2.7
O=C(NCc1ccc2c(c1)OCO2)c1ccc(S(=O)(=O)NCC2CCCO2)cc1 (stereo not given)
 : -5.8	-11.9	-0.0861	-3.0	-8.5	-6.9	0.8	-16.7
CCn1c(COc2ccc(Cl)cc2)nnc1SCC(=O)Nc1ccc2c(c1)OCO2
 : -22.5	6.9	0.783	-3.0	-3.8	-18.6	-15.0	-13.5
O=C(NCCCn1ccnc1)c1cc(C(=O)C2CC2)c[nH]1
 : 13.1	-3.6	-0.773	2.0	-13.5	-8.4	5.8	8.1
